TRPV1 potentiator: HTS Assay for Compounds that Act as Potentiators of the Vanilloid Receptor 1. Transient receptor potential cation channel subfamily V member 1 (Homo sapiens), Q8NER1. TRPV1-expressing cells, Fluo-8 calcium influx, capsaicin EC20 potentiation; host cell line not named in the record; control for the full effect not named in the record. potentiation, % at 8.33 µM. 320,000 tested, 0.02% active; active means potentiation above 80%; inconclusive means 30% to 80%; inactive means below 30%; also: 0% is about no effect
Target sequence (Q8NER1 whole entry, looked up): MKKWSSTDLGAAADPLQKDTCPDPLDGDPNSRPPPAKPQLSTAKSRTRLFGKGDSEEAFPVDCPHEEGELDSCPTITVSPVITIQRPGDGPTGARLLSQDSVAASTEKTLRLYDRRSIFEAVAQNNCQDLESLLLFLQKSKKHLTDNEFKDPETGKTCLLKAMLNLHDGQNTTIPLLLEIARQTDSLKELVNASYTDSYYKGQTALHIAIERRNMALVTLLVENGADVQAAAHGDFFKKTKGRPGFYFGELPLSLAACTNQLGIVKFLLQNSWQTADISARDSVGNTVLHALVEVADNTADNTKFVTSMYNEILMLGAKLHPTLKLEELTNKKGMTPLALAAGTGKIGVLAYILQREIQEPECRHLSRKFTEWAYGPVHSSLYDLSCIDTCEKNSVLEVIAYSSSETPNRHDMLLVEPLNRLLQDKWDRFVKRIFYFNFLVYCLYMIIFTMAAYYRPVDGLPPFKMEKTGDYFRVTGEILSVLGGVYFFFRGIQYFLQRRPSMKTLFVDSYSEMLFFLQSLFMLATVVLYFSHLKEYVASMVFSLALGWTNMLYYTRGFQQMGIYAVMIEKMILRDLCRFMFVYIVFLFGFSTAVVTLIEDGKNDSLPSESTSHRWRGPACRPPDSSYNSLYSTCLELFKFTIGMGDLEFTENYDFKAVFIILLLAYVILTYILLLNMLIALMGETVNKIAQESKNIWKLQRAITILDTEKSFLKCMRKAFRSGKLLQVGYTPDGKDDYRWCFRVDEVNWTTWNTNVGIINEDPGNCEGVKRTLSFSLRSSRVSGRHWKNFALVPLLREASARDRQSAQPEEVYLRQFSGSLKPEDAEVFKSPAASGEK
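Cells expressing TRPV1 were dye-loaded with Fluo-8 and read kinetically: 10 s baseline, 3 min after compound (agonist portion), then 2 min after EC20 capsaicin (allosteric enhancer portion). Calcium-bound dye fluorescence at 480/520 nm.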
TRPML1 ag: qHTS for Agonists of the Human Mucolipin Transient Receptor Potential 1 (TRPML1) | TRPML1-expressing cells, Ca2+ dye fluorescence, FDSS; host cell line not named in the record; reference of the full effect not given here | 410,000 tested, 0.12% active | AID 624414, 2012 | activation, % (test concentration not listed) | Mucolipin-1 (Homo sapiens), Q9GZU1; in the data active = activation above about 50%; inconclusive = about 30% to 50%; inactive = below about 30%; also: 0% is about no effect; the text of the record puts the active cut at 80%
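TRPML1-DL cells, Tet-induced overnight (~16 h, 37 degrees C), loaded 45-90 min at room temperature with Ca8 no-wash calcium dye plus quencher. FDSS fluorescence: 10 s baseline, compound pin-transfer, 110 s agonist read, then EC80 54-4 (4uM final) and 110 s antagonist read.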
PINK1 expr mod: A Quantitative High throughput Screen to Identify Chemical Modulators of PINK1 Expression. PINK1 immunofluorescence, high-content cytometry, 24 h. 410,000 tested, 0.2% active. Potency, µM (titrated, usually from 76.6 µM), inactives show at the top dose activation (PINK1 increase), usual class: activators. AID 624263, 2012; active = well fitted activation curve with a large enough effect; inconclusive = small, poorly fitted or top-dose-only effect; inactive = flat fitted curve, though single readings scatter; cell line not stated here;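 also: potency is read from the fitted curve at half-maximal effect; % of control where 0% means no effect; nearly all actives have a fitted effect of over 65% in size; a mitochondrial uncoupler was the plate control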
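Compound titrations (5 concentrations, 24 h) on a stable cell line; DMSO and CCCP controls. Endpoint: fixed-cell PINK1 immunofluorescence with mitochondrial, cell and nuclear markers, scanned by microplate cytometer.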
ClpP mod: qHTS Assay for Activators of ClpP. ATP-dependent Clp protease proteolytic subunit (Bacillus subtilis (strain 168)), P80244. Potency, µM (top dose mostly 57.5 µM), for inactives: at the top dose activity change, negative = active. 340,000 tested, 1.9% active. AID 651965, 2013. purified B. subtilis ClpP, FRET peptide cleavage, 20 min; active = well fitted falling curve with a large enough effect; inconclusive = small, poorly fitted or top-dose-only effect; inactive = no such curve, though single readings can be large or run the other way; also: potency is read from the fitted curve at half-maximal effect; the source files actives as falling curves though it sought activators and does not explain the sign; nearly all actives have a fitted effect of over 65% in size; many hits overshoot -100%
Target sequence (P80244 whole entry, looked up): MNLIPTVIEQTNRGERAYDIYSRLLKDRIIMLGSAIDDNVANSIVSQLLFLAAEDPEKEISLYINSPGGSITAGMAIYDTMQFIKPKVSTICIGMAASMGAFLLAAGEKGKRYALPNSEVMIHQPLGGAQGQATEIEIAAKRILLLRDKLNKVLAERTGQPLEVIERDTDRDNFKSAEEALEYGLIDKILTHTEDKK
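Purified B. subtilis ClpP, 10 microg/mL final in Tris/HCl pH8 with KCl, BSA, glycerol and Tween-20, cleaved an Abz/nitrotyrosine-quenched decapeptide. Fluorescence (ex 320, em 430) was read at 0 and 20 min at room temperature. Delta was normalized to 5.8 microM ADEP and DMSO/no-enzyme controls.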
Menin-MLL FL inh: qHTS Assay for Inhibitors Targeting the Menin-MLL Interaction in MLL Related Leukemias: Competition With Fluorescein Labeled MLL-derived Peptide | FP activity change, % at 61.4 µM | 290,000 tested, under 10 active | Fluorescence polarization, fluorescein-MLL peptide displacement from menin | AID 1766, 2009; inconclusive = falling polarisation curve, or a change in total fluorescence; inactive = total fluorescence flat and polarisation flat or rising; no compound was filed as active; the % refers to the polarisation; negative = inhibition;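 also: % of control where 0% means no effect; inhibitors lower the polarisation; unlabelled MLL peptide was the positive control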
Sfp PPTase inh: qHTS Assay for Inhibitors of Bacillus subtilis Sfp phosphopantetheinyl transferase (PPTase). 4'-phosphopantetheinyl transferase ffp (Bacillus subtilis), Q9F4F7. Biochemical Sfp PPTase activity, qHTS. Potency, µM, for the others: max response, negative = inhibition, most hits filed as inhibitors. 310,000 tested, 3.5% active. AID 1490, 2009; active = well fitted inhibition curve with a large enough effect; inconclusive = small, poorly fitted or top-dose-only effect, or another doubt; inactive = no such curve, though single readings can be large or run the other way;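 also: the enzyme is Sfp with the accession as filed and its product quenches rhodamine fluorescence; potency is read from the fitted curve at half-maximal effect; 0% = enzyme reaction without inhibitor and -100% = no enzyme wells; top concentration of the series not given in the record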
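Reaction rates are the 30-min fluorescence difference (ex 525, em 598 nm) in wells containing 15 nM Sfp, 5 uM rhodamine-CoA and 12.5 uM BHQ-2-YbbR at pH 7.6 with 10 mM MgCl2.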
TRPML1 blocker: qHTS for Inhibitors of the Human Mucolipin Transient Receptor Potential 1 (TRPML1) | Mucolipin-1 (Homo sapiens), Q9GZU1 | TRPML1-inducible cells, Ca2+ dye fluorescence, FDSS; stronger effect = lower value; inhibition of EC80 agonist-evoked calcium signal | activity change, negative = inhibition, % (concentration not given with the values) | 390,000 tested, 0.02% active | AID 624415, 2012; in the data active means activity change below about -50%; inconclusive means about -30% to -50%; inactive means above about -30%;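 also: stimulus is agonist 54-4 at its EC80 concentration; % is scaled to controls: 0 for no effect and ±100 for the full control effect; compound concentration not given in the record; the text of the record puts the active cut at -80%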
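TRPML1-DL cells, Tet-induced overnight (~16 h, 37 °C) at 1,500 cells/well, were loaded with Ca8 no-wash dye plus quencher for 45-90 min at room temperature. Compounds were pinned during FDSS kinetic reading; agonist 54-4 at EC80 (4 uM final) then added.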
Active calls of the source: *; ? = inconclusive; · = not tested or not shown; & = joins results of further samples; [ ] = remark or other dose. Compounds as they come; 4.4% or so of the library scored in one or more.

SMILES	TRPV1 potentiator	TRPML1 ag	PINK1 expr mod	ClpP mod	Menin-MLL FL inh	Sfp PPTase inh	TRPML1 blocker
CCOc1ccccc1NC(=O)c1ccc(S(=O)(=O)N2CCCCC2)cc1	0	1.8	-1.6%	·	2.5	-6%	-3
CCOc1ccc(C(=O)Nc2cc(-c3nc4cc(OC)ccc4o3)ccc2C)cc1[N+](=O)[O-]	·	1.0	-0.6%	-16%	·	·	-12
Cc1ccccc1Nc1nc(N)nc(CSCC(=O)Nc2cccc(Br)c2)n1	-6	1.1	0.9%	2.0%	8.6	4%	-5
CC(=O)c1cc2c(cc1NC(=O)c1cnc(C)cn1)OCO2	-2	0.5	0.7%	-6.5%	4.4	24%	-11
CCc1cc(=O)oc2cc(C)cc(O)c12	23	0.3	11%	-2.7%	-0.3	12%	28
Cc1cccc(C)c1NC(=O)C1c2ccccc2Oc2ccccc21	2	0.0	0.5%	2.5%	6.7	7%	-11
Cc1cc(N2CCN(C)CC2)nc2ccc(NC(=O)Nc3ccc(Cl)cc3)cc12	·	1.6	2.4%	3.5%	·	·	21
C/C(N)=C(/C#N)C(=O)CSc1nnc(COc2ccccc2Cl)o1	-12	1.5&-0.6	18%&4.4%	2.1%&2.6%	2.4	15%	29&-9
O=S1(=O)CCN(CCc2ccccc2)CC1	·	0.2	0.8%	0.4%	·	·	5
CN(C(=O)c1ccc(NC(=O)Cc2ccc(NC(=O)C3CCCN(C(=O)C4CCCCC4)C3)cc2)cc1)C1CCCC1 (stereo not drawn)	·	3.7	0.8%	-0.5%	·	·	-12
Cn1nc(C(F)(F)F)c(-c2ccc(Br)cc2)c1NC(=O)CSCC(=O)O	20	0.0	-0.7%	·	3.0	5%	4
Cc1c(C)n(Cc2ccccc2)c2ccc(C(=O)OCCCN(C)C)cc12	-2	0.1	-1.6%	·	-4.0	7%	-20
CC(=O)c1ccc(N2CCN(CC(O)COC(c3ccccc3)c3ccccc3)CC2)cc1 (stereo not drawn)	27	2.2	20%	·	-7.0	?	38
Nc1nnc(SCC(=O)Nc2cccc3ccccc23)s1	10	0.2	-0.9%	·	-1.9	8%	-12
COCCCNC(=O)C(=O)NC1CCCCCC1	-7	0.3	2.2%	-4.0%	0.6	13%	30
Cc1ccccc1NC(=O)Nc1ccc(C(F)(F)F)cc1	-3	2.2	-0.4%	·	-4.0	16%	-9
Cn1c(=O)cc(N2CCCCC2)[nH]c1=O	4	-0.3	0.8%	-1.6%	-0.5	10%	-13
O=C(CCN1C(=O)c2ccccc2C1=O)Nc1ccc(S(=O)(=O)NC2=NCCCCC2)cc1	0	-0.6	-1.0%	-1.0%	-0.9	4%	2
CCOC(=O)C1=C(N)OC2=C(C(=O)CC(C)(C)C2)C1c1ccccc1OCC#N (stereo not drawn)	1	0.2	-0.7%	-0.5%	0.0	-1%	0
COc1ccc(/C(C)=N/NC(=O)CNC(=O)C(c2ccccc2)c2ccccc2)c(OC)c1	5	1.3	-0.8%	-0.5%	-3.0	7%	-2
CCOc1ccc(OCC)c(NS(=O)(=O)c2c(C)[nH]c(=O)[nH]c2=O)c1	·	0.6	-0.9%	-3.2%	·	·	-9
Cc1ccc(C2C(C#N)=C(N)N(c3cccnc3)C3=C2C(=O)CCC3)s1 (stereo not drawn)	5	1.6	3.7%	-0.8%	?	-7%	4
COc1cc(C(=O)Nc2nnc(SCC(=O)NCC3CCCO3)s2)cc(OC)c1OC (stereo not drawn)	-5	-0.2	1.1%	0.6%	·	10%	-1
COc1ccc(NC(=O)CN2CCc3ccccc3C2)cc1	·	-0.2	-0.2%	0.1%	·	·	-6
Cc1c(C2(O)CCCCC2)[nH]c2ccc(C(F)(F)F)cc12	·	3.7	-1.2%	-23%	·	·	-2

The results go on:
SMILES	TRPV1 potentiator	TRPML1 ag	PINK1 expr mod	ClpP mod	Menin-MLL FL inh	Sfp PPTase inh	TRPML1 blocker
O=c1oc(-c2ccc([N+](=O)[O-])cc2)nc2ccc(O)cc12	-1	-0.7	4.0%	·	0.5	-4%	17
CCN(CC)CC(=O)Nc1ccc(C)cc1Br	-15	0.8	7.6%	1.7%	-0.9	21%	16
CCC(C)(C)NC(=O)Nc1cc(Cl)ccc1OC	5	-0.1	15%	2.2%	0.1	16%	3
Cc1cc(NS(=O)(=O)c2ccc(NC(=O)C(CC(C)C)N3C(=O)c4ccccc4C3=O)cc2)nc(C)n1 (stereo not drawn)	-1	0.4	-0.1%[38.3 µM]	-3.3%	2.7	12%	-4
CCc1ccccc1N(C)C(=O)C1CCCN(c2ncnc3c2nc2n3CCCCC2)C1 (stereo not drawn)	·	0.1	1.6%	1.6%	·	·	-10
CC1=C(C(=O)OC2CCCC2)C(c2ccccc2Cl)CC(=O)N1 (stereo not drawn)	·	1.6	3.1%	-3.6%	·	·	1
Cc1csc(NC(=O)C2CCCN(S(=O)(=O)c3ccc(Br)s3)C2)n1 (stereo not drawn)	-9	0.9	3.0%	-1.6%	-7.3	-15%	23
Cc1cc(=O)n(CC=C(Cl)Cl)c2ccccc12	-12	2.7	3.3%	-12%	2.6	6%	0
Cc1ccc(S(=O)(=O)N2CCC(C(=O)OCc3c(C)noc3C)CC2)cc1C	-18	0.4	-7.1%	-3.2%	·	·	-1
C=CC[N+]1(CC#CCOC(c2ccccc2)c2ccccc2)CCOCC1	7	0.5	-1.6%[38.3 µM]	-0.3%	1.9	-7%	-11
O=C(COC(=O)CSc1ccc(Cl)cc1)Nc1ccc2[nH]c(=O)[nH]c2c1	·	1.5	-1.0%	·	·	·	22
Nc1cc(=O)n(Cc2ccccc2)c(=O)n1-c1ccc(Cl)cc1	-18	-0.1	2.3%	·	-1.9	-2%	-16
O=C(CCNC(=O)c1ccc(Cl)cc1)Nc1nc2ccccc2[nH]1	·	-0.8	1.3%	-2.2%	·	·	8
CC(C)(C)c1ccc(NC(=O)C(=O)C2C(=O)Nc3ccccc32)cc1 (stereo not drawn)	7	1.5	1.3%	-1.3%	-11	5%	9
O=C(NCc1ccco1)C(c1ccccc1)N(C(=O)Cc1cccs1)c1ccccc1 (stereo not drawn)	6	2.6	5.2%	-1.9%	1.9	19%	8
Cc1ccc(N=Nc2ccc(C)cc2NC(=O)Nc2ccccc2F)cc1	13	1.5	15%	-0.4%	-2.4	-12%	-3
Cc1ccc(-n2nnc(-c3nccn3C)n2)cc1	12	-0.7	0.4%	-8.1%	-6.7	16%	-6
Nc1nc(Nc2ccccc2Cl)cc(=O)[nH]1	?	0.0	1.2%	·	6.7	7%	-24
COc1ccc(/C=N/Nc2nc(=O)[nH]nc2C)cc1[N+](=O)[O-]	21	-0.6	0.9%	·	1.7	?	11
O=C(CSc1ncn[nH]1)Nc1ccccc1Sc1ccc(Cl)cc1	-1	0.4	-1.0%	-4.5%	3.7	17%	39
COC(=O)c1ccc(NC(=O)C(=O)N2CCN(C(=S)NCCc3ccccc3)CC2)cc1	-8	1.0	-0.5%	-5.1%	-0.5	15%	1
CCCOc1cccc(C2C(C(=O)c3ccco3)=C(O)C(=O)N2CCN(CC)CC)c1 (stereo not drawn)	3	0.3	-0.2%	-0.9%	4.6	0%	12
COc1ccccc1NC(=O)CON=C(N)CC(=O)NC1CCCCC1	9	5.8	2.9%	-2.0%	·	·	1
O=C(O)CC(CC(=O)N1CCOCC1)c1ccccc1 (stereo not drawn)	25	0.5	0.1%	-5.8%	-1.6	12%	-9
CCOC(=O)c1cccc(N2C(=O)c3ccccc3S2(=O)=O)c1	-9	1.0	·	-1.4%	-4.5	4%	-3

Next results follow:
SMILES	TRPV1 potentiator	TRPML1 ag	PINK1 expr mod	ClpP mod	Menin-MLL FL inh	Sfp PPTase inh	TRPML1 blocker
CCOC(=O)Nc1cc2c(cc1C(C)=O)OCO2	1	0.4	-0.8%[38.3 µM]	-29%	-0.9	5%	30
Cn1c(N)c(C(=O)CSc2n[nH]c(-c3ccccc3)n2)c(=O)n(C)c1=O	1	-0.2	4.8%	-1.9%	·	·	4
O=C(NCc1ccc(Cl)cc1)N1CCN(S(=O)(=O)c2ccccc2)CC1	-8	2.4	-1.8%	·	3.1	8%	35
COc1ccc(-c2nc3ccccc3o2)cc1NC(=O)c1cc(Br)ccc1OC	·	-0.2	0.2%	-21%	·	·	14
COc1ccc(C(=O)NCCS(=O)(=O)NCc2ccc3c(c2)OCO3)cc1	-6	0.0	-1.6%	-0.5%	·	·	-13
CSc1cccc(NC(=O)C2CCN(S(=O)(=O)c3ccc4c(c3)CCCN4C(=O)C3CCC3)CC2)c1	·	0.7	-1.1%	-2.4%	·	·	-7
CCN(CC)S(=O)(=O)c1cc(C(=O)OCC(=O)c2ccc3c(c2)NC(=O)CO3)ccc1F	-17	-0.5	1.5%	-0.3%	-1.1	-9%	48
CCCCCN(C(=O)CCC(=O)OC(C)C(=O)Nc1ccccc1C)c1c(N)n(CCCC)c(=O)[nH]c1=O (stereo not drawn)	·	-0.2	-0.4%	-1.9%	·	·	-15

Three compounds already listed, sorted by the number in PINK1 expr mod, low to high.
SMILES	PINK1 expr mod	Menin-MLL FL inh	Sfp PPTase inh	TRPML1 blocker
CSc1cccc(NC(=O)C2CCN(S(=O)(=O)c3ccc4c(c3)CCCN4C(=O)C3CCC3)CC2)c1	-1.1%	·	·	-7
COc1ccc(-c2nc3ccccc3o2)cc1NC(=O)c1cc(Br)ccc1OC	0.2%	·	·	14
Cn1c(N)c(C(=O)CSc2n[nH]c(-c3ccccc3)n2)c(=O)n(C)c1=O	4.8%	·	·	4
